TRPV1 potentiator – enhances activation of the human vanilloid receptor TRPV1. Q8NER1. TRPV1-expressing cells, Fluo-8 calcium influx, capsaicin EC20 potentiation; host cell line not named in the record; control for the full effect not named in the record. potentiation, % at 8.33 µM. actives 0.02% (n = 320,000). AID 540277; active means potentiation above 80%; inconclusive means 30% to 80%; inactive means below 30%; note: 0% is about no effect
Target sequence (Q8NER1 whole entry, looked up): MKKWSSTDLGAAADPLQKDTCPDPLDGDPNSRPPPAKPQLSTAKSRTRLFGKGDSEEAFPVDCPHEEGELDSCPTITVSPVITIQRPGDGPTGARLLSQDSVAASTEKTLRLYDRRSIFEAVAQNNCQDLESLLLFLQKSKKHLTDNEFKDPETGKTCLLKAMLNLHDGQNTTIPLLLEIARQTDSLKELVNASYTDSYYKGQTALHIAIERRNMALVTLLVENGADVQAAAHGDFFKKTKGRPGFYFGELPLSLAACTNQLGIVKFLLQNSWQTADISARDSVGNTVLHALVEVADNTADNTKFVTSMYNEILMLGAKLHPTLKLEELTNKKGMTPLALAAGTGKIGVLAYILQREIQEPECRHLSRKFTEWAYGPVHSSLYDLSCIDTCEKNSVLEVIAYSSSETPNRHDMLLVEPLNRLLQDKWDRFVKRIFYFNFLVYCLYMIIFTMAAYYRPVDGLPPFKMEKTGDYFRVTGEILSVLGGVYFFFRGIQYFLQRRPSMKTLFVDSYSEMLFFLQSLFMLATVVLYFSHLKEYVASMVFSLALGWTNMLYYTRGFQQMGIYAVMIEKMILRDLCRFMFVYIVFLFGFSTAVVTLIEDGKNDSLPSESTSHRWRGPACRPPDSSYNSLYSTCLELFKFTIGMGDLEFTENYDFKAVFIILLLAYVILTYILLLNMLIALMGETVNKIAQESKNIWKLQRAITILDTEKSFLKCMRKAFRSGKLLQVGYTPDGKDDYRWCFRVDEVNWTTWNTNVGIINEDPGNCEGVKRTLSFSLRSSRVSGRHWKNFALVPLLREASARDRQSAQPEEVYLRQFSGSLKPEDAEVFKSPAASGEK
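TRPV1-expressing cells were cultured overnight at 35.5C and loaded with Fluo-8 calcium dye for 40 to 90 min at room temperature. After a 10 s baseline, compound was added and calcium influx was read kinetically for 3 min (ex 480/em 520 nm).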
CtBP-E1A inh – CtBP/E1A binding inhibition; AlphaScreen GST-E1A/His-CtBP binding, 1536-well; hits give low values; control for the full effect not named in the record; activity change, % (no concentration beside the values); actives 0.49% (n = 340,000); AID 651724; in the data active means activity change below about -65%; inconclusive means about -30% to -65%; inactive means above about -30%; note: % is set by controls: 0 for no effect and ±100 for the full control effect; compound concentration not given in the record
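Protein mix (5X: 125 nM each GST-E1A, His-CtBP) was incubated with pinned compound 2 h at 37 deg C in dark, in 50 mM Tris pH 8.0 buffer with 300 mM NaCl. Glutathione donor and nickel acceptor beads followed; AlphaScreen signal read after 1 h.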
Menin MLL FP FL – inhibitors of human menin-MLL interaction, wild-type MLL peptide; Fluorescence polarization, fluorescein-MLL peptide displacement from menin; 290,000 tested, under 10 active; AID 1766; FP activity change, % at 61.4 µM; inconclusive = falling polarisation curve, or a change in total fluorescence; inactive = total fluorescence flat and polarisation flat or rising; no compound was filed as active; the % refers to the polarisation; negative = inhibition;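 note: % of control where 0% means no effect; inhibitors lower the polarisation; unlabelled MLL peptide was the positive control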
gsp agonist – agonists of gsp mutant (McCune-Albright syndrome); gsp mutant cells, cAMP HTRF, 30 min; control for the full effect not named in the record; AID 624287; actives 0.13% (n = 340,000); Potency, µM (top dose mostly 76.9 µM), for inactives: at the highest dose activation (cAMP increase), most hits filed as activators; active = well fitted activation curve with a large enough effect; inconclusive = small, poorly fitted or top-dose-only effect, or another doubt; inactive = no such curve, though single readings can be large or run the other way; cell line not stated here;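 note: phosphodiesterase inhibitor Ro 20-1724 added with compounds to block cAMP breakdown; potency is the fitted concentration of half-maximal effect; nearly all actives have a fitted effect of over 60% in size; about a fifth of the inactives were tested at one dose only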
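Cells stably selected in G418 were plated at 2000/well, grown 16-24 hr, then given compounds in DMSO with the PDE inhibitor […] (300 uM solution added) for 30 min at 37C; cAMP was read by HTRF.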
ClpP mod – qHTS Assay for Activators of ClpP. ATP-dependent Clp protease proteolytic subunit (Bacillus subtilis (strain 168)), P80244. purified B. subtilis ClpP, FRET peptide cleavage, 20 min. Potency, µM (titrated, usually from 57.5 µM), for the others: top-dose activity change, negative = active. actives 1.9% (n = 340,000). AID 651965, 2013; active = well fitted falling curve with a large enough effect; inconclusive = small, poorly fitted or top-dose-only effect; inactive = no such curve, though single readings can be large or run the other way; note: potency is the fitted concentration of half-maximal effect; the source files actives as falling curves though it sought activators and does not explain the sign; nearly all actives have a fitted effect of over 65% in size; many hits overshoot -100%
Target sequence (P80244 whole entry, looked up): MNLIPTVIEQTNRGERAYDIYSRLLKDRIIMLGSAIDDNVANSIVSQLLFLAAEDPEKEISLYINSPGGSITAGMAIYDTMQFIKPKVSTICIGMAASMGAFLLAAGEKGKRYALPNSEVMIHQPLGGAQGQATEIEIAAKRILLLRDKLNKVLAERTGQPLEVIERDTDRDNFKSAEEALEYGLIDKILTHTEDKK
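ClpP 10 microg/mL final, pH 8 Tris/KCl buffer with BSA, glycerol, Tween-20; compound pinned in; FRET-FV substrate; RT 20 min; Ex320/Em430; ΔFRET vs ADEP 5.8 microM, DMSO, no enzyme.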
Sfp PPTase inh – inhibitors of Bacillus subtilis Sfp phosphopantetheinyl transferase; Q9F4F7; Potency, µM, for inactives: max response, negative = inhibition, usual class: inhibitors; actives 3.5% (n = 310,000); Biochemical Sfp PPTase activity, qHTS; active = well fitted inhibition curve with a large enough effect; inconclusive = small, poorly fitted or top-dose-only effect, or another doubt; inactive = no such curve, though single readings can be large or run the other way;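 note: the enzyme is Sfp with the accession as filed and its product quenches rhodamine fluorescence; potency is the fitted concentration of half-maximal effect; 0% = enzyme reaction without inhibitor and -100% = no enzyme wells; top concentration of the series not given in the record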
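Buffer: 50 mM Hepes-Na pH 7.6, 10 mM MgCl2, 0.01% Nonidet P-40, 0.01% BSA. Enzyme 15 nM, pre-exposed to compound 15 min; substrates then added and fluorescence change tracked over 30 min.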
gsp antagonist – antagonists of gsp mutant (McCune-Albright syndrome). gsp-mutant cells, cAMP HTRF, 30 min; control for the full effect not named in the record. actives 0.4% (n = 340,000). Potency, µM (titrated, usually from 76.9 µM), inactives show top-dose activity change, negative = inhibition, hits mostly inhibitors; active = falling curve of any shape with a large fitted effect; inconclusive = falling curve, mostly with a smaller effect; inactive = flat or rising curve; cell line not stated here;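 note: intracellular cAMP measured with PDE inhibitor Ro 20-1724 present during compound exposure; potency is the fitted concentration of half-maximal effect; % is set by controls: 0 for no effect and ±100 for the full control effect; nearly all actives have a fitted effect of over 65% in size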
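G418-selected cells were plated in DMEM/10% FBS for 16-24 h at 37C, then treated with compounds plus the PDE inhibitor […] (300 uM solution added) for 30 min at 37C. Intracellular cAMP was measured by HTRF after 30 min lysis at room temperature.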
* hit, by the source's call; ? = inconclusive; / = not tested or not shown; & = joins results of further samples; [ ] = another dose, or the depositor's remark.

SMILES	TRPV1 potentiator	CtBP-E1A inh	Menin MLL FP FL	gsp agonist	ClpP mod	Sfp PPTase inh	gsp antagonist
CC1CCCCN1S(=O)(=O)c1ccc(-n2cnnn2)cc1 (centres undefined)	2	9	2.1	-26%	/	10%	4%
CSc1ccccc1NC(=O)CSc1nnc(CNC(=O)c2ccccc2F)n1C	-1	8	4.1	-10%	/	10%	-2%
CCOC(=O)c1c(C)nc2c(c1-c1ccccc1)C(=O)CCC2	-14	-3	0.5	-25%	-1.9%	14%	1%
COc1cc2c(cc1OC)C(c1ccc(Br)cc1)N(C(=O)c1ccccc1C(=O)O)CC2 (centres undefined)	?	2	3.6	-31%[inhibitor]	1.4%	24%	-27%
CCc1nnc(N/N=C/c2cccs2)n1N	1	-1	4.3	-19%	-1.8%	?	6%
COCCNC(=S)N(CCN(C)C)Cc1cc2cc3c(cc2[nH]c1=O)OCO3	3	/	-7.6	-31%	3.8%	0%	2%
O=C(COc1ccc([N+](=O)[O-])cc1)Nc1ccccc1C(=O)NC1CC1	8	-6	/	3%[15.4 µM]	/	/	3%
CCOC(=O)CSc1nnc(Cn2c(=O)sc3ccccc32)n1C	-7	-3	5.2	-1%	-1.5%	-8%	-3%
COc1ccc(C(CC(=O)O)NC(=O)COc2ccc(C)cc2)cc1OC (centres undefined)	4	1	4.6	5%	-1.5%	14%	7%
O=C(c1ccc2c(c1)OCO2)N1CCCc2ccccc21	10	6	4.8	5%	0.3%	-9%	16%
C=CCN1C(=O)/C(=C/c2ccsc2)SC1=S	-1	-19	5.0	7%	-3.7%	-3%	8%
Cc1cccc(CSc2nc3sc(C)c(C)c3c(=O)n2Cc2ccco2)c1	4	11	1.5	11%	0.0%	0%	9%
Cn1c(=O)c2c(=O)cc(NNC(=O)CC#N)[nH]c2n(C)c1=O	2	1	6.5	?	-0.5%	9%	-1%
CN(C)S(=O)(=O)c1ccc(NC(=O)N2CCN(c3ccccc3)CC2)cc1	29	2	-0.6	-7%[15.4 µM]	-1.2%	4%	10%
O=C(NC(=S)/C(=C1\CCCCCN1)[N+](=O)[O-])c1ccccc1	/	3	/	25%[15.4 µM]	-0.1%	/	-18%
Cc1nnc(SCC(=O)Nc2cccc(S(N)(=O)=O)c2)n1-c1ccccc1	-2	5	/	24%[15.4 µM]	/	10%	-14%
CC(NC(=O)Nc1ccc2c(c1)OCO2)c1ccncc1 (centres undefined)	3	-7	-0.2	4%[15.4 µM]	/	27%	3%
CCOc1ccc(N2CC(C(=O)NCc3ccc4c(c3)OCO4)CC2=O)cc1 (centres undefined)	2	0	-0.1	7%[15.4 µM]	/	10%	5%
CCCCN1C(=N)N([C@@H](C)CN2CCC[C@H]2CN2C(N)=NC[C@H]2C(C)C)C[C@H]1[C@H](C)CC	/	5	/	/	0.9%	/	5%
Cc1ccc(S(=O)(=O)N2CCN(C(=O)CCC(=O)NC3CCCc4ccccc43)CC2)cc1 (centres undefined)	?	-1	1.7	-66%[inhibitor]	0.3%	12%	-18%

The list goes on (three carried over from the part before).
SMILES	TRPV1 potentiator	CtBP-E1A inh	Menin MLL FP FL	gsp agonist	ClpP mod	Sfp PPTase inh	gsp antagonist
CCOc1ccc(N2CC(C(=O)NCc3ccc4c(c3)OCO4)CC2=O)cc1 (centres undefined)	2	0	-0.1	7%[15.4 µM]	/	10%	5%
CCCCN1C(=N)N([C@@H](C)CN2CCC[C@H]2CN2C(N)=NC[C@H]2C(C)C)C[C@H]1[C@H](C)CC	/	5	/	/	0.9%	/	5%
Cc1ccc(S(=O)(=O)N2CCN(C(=O)CCC(=O)NC3CCCc4ccccc43)CC2)cc1 (centres undefined)	?	-1	1.7	-66%[inhibitor]	0.3%	12%	-18%
C=CCn1c(N2C(=O)CC(Cc3ccccc3)C2=O)nc2ccccc21 (centres undefined)	-1	5	-0.4	2%	1.0%	1%	-4%
Cc1cc(C)n2nc(C(=O)N/N=C/c3cccc(Cl)c3)nc2n1	-1	0	-0.1	?	/	16%	-8%
CC(C)N1CCN(Cc2ccc(Oc3ncccn3)cc2)CC1CCO (centres undefined)	1	/	3.4	-39%[inhibitor]	0.2%	14%	15%
CCOCc1nnc(NC(=O)CCS(=O)(=O)Cc2ccccc2)s1	-5	7	3.2	-5%[15.4 µM]	/	-14%	12%
CCC(=O)N1CCc2cc(S(=O)(=O)CCC(=O)N3CCN(c4ccc(C(C)=O)cc4)CC3)ccc21	3	0	1.1	?	-11%&-9.3%	10%	-27%
CN1CCN(c2ccc(NC(=O)COc3ccccc3)cc2Cl)CC1	3	-4	6.0	1%	-1.1%	3%	11%
O=C(c1cnn2c(C(F)(F)F)cc(-c3ccco3)nc12)N1CCc2ccccc2C1	-8	0	5.8	?	-16%	-3%	3%
COc1ccc(OC)c(NC(=O)CSc2nnc(-c3ccco3)n2-c2ccccc2)c1	4	-12	1.3	10%	-0.5%	8%	3%
Cc1nc2sc(C(c3ccccc3)N3CC(C)OC(C)C3)c(O)n2n1 (centres undefined)	5	0	1.8	-1%	0.2%	28%	0%
Clc1ccc(Oc2cnns2)c(Cl)c1	0	7	2.4	5%	-0.5%	-1%	4%
O=[N+]([O-])c1cc2c(cc1/C=N\NS(=O)(=O)c1ccccc1)OCO2	14	8	1.4	-60%[inhibitor]	0.3%	-17%	-6%
Cc1ccc(-c2csc3ncn(/N=C/N(C)C)c(=O)c23)o1	0	-2	-1.0	?	-2.5%	-6%	7%
COC(=O)c1nn(-c2cccc(C(F)(F)F)c2)c(=O)cc1Sc1ccccn1	-16	0	2.8	28%	1.7%	3%	-7%
Cc1cc(=S)n(-c2ccccc2)n1C	2	-1	8.3	?	0.8%	?	12%
O=C(CNC(=O)c1cnccn1)Nc1ccc(F)c(F)c1F	0	0	1.5	5%	1.1%	19%	6%
COc1ccc(NC(=O)CN2CCCCC2)c([N+](=O)[O-])c1	-10	10	-0.9	-11%	-1.3%	6%	5%
CC(NC(=O)c1cc2cc(F)ccc2[nH]1)c1ccccc1 (centres undefined)	-13	-5	5.6	-22%	3.0%	-2%	-22%
CN(Cc1cnn(-c2ccccc2)c1)C(=O)c1cccc(S(=O)(=O)N(C)c2ccccc2)c1	/	-1	/	-54%[inhibitor]	2.3%	/	/
O=C(NCC1CCCO1)c1ccc(Cl)c(NS(=O)(=O)c2ccc(F)cc2)c1 (centres undefined)	/	3	/	-46%[inhibitor]	-4.2%	/	/
O=C(Cn1c(=O)c2sccc2n(Cc2ccc([N+](=O)[O-])cc2)c1=O)NCCc1ccccc1	-4	-89*	1.1	-40%[inhibitor]	-1.8%	-14%	0%
O=C(Nc1ccc2c(c1)OCCO2)C1CCN(S(=O)(=O)c2ccc3c(c2)OCCO3)CC1	4	-7	1.2	-9%	-1.2%	6%	-11%
O=C(NCc1cccs1)c1nn2cccnc2c1Cl	?	3	3.4	?	-0.6%	18%	-6%
O=C(COC(=O)c1nc(Cl)c(Cl)c(Cl)c1Cl)NCc1ccccc1	-16	-20	/	?	-3.0%	/	-6%
O=C(Cc1ncon1)Nc1ccc(F)c(F)c1F	/	8	2.0	-23%	-0.7%	12%	7%
CC1(C)CC(=O)C=C(c2ccc(F)nc2)C1	2	-21	/	-1%	-2.9%	/	11%
Cn1cc(S(=O)(=O)NCCc2ccccc2)c(=O)n(C)c1=O	-2	0	2.0	5%[15.4 µM]	/	16%	6%
Cc1ccc(NS(=O)(=O)c2cn(C)c(=O)n(C)c2=O)c(C)c1	-5	-2	1.5	?	0.1%	8%	3%
COCCNC(=O)C(OC(=O)c1cc2oc(C)cc2n1C)C(C)C (centres undefined)	2	2	8.8	8%	-0.6%	11%	10%
CCOC(=O)Cc1csc(NC(=O)c2sc3nc4c(C)cc(C)cc4cc3c2N)n1	24	12	?	?	-5.0%	-14%	-9%
O=C(NCCNc1ccc([N+](=O)[O-])cc1)c1ccccc1Br	8	-11	1.9	-4%	-1.7%	-8%	-12%

One compound at a time, from the list above:
O=C(NCc1cccs1)c1nn2cccnc2c1Cl across the screens: TRPV1 potentiator = ?; CtBP-E1A inh = 3; Menin MLL FP FL = 3.4; gsp agonist = ?; ClpP mod = -0.6%; Sfp PPTase inh = 18%; gsp antagonist = -6%
O=C(NCCNc1ccc([N+](=O)[O-])cc1)c1ccccc1Br across the screens: TRPV1 potentiator = 8; CtBP-E1A inh = -11; Menin MLL FP FL = 1.9; gsp agonist = -4%; ClpP mod = -1.7%; Sfp PPTase inh = -8%; gsp antagonist = -12%

Further entries
SMILES	TRPV1 potentiator	CtBP-E1A inh	Menin MLL FP FL	gsp agonist	ClpP mod	Sfp PPTase inh	gsp antagonist
CC1CN(c2nc3ccccn3c(=O)c2/C=C(\C#N)C(N)=O)CC(C)O1 (centres undefined)	-5	-2	1.2	?	/	12%	4%
CCCSCCCNC(=O)c1ccc(C)c(NC(=O)C2=C(C)OCCS2)c1	-1	/	0.3	-43%[inhibitor]	-1.5%	-7%	-3%
COc1ccc(S(=O)(=O)n2nc(-c3cc(OC)c(OC)c(OC)c3)cc2N)cc1OC	30	-1	1.7	-4%	1.1%	11%	5%
CC1(C)CC(=O)C=C(NCCN2CCN(C(=O)Nc3ccccc3)CC2)C1	11	-14	-2.3	-31%	-3.9%	20%	2%
COCCNC(=O)/C(C#N)=C/c1c(N2CCN(c3cccc(Cl)c3)CC2)nc2c(C)cccn2c1=O	11	/	21	-3%	3.7%	-10%	?
COC(=O)c1cn(NC(=O)Cc2ccccc2Br)c(=O)c2ccccc12	-7	1	2.5	0%[15.4 µM]	1.3%	31%[activator]	-12%
COc1cccc2c1cc1c(=O)n(CC(=O)NCc3ccccn3)nc(C)n12	-15	/	/	8%	4.3%	13%	11%
CCOC(=O)c1c(C)cc(C)[nH]c1=O	-14	2	0.5	-14%[15.4 µM]	/	-4%	/
CCOC(=O)C1C(=O)NC(N2CCOCC2)=NC1c1ccco1 (centres undefined)	-2	7	0.2	-2%	-0.5%	6%	4%
O=C(C1=C(O)C(=O)N(CC2CCCO2)C1c1ccccc1F)c1ccco1 (centres undefined)	-1	2	3.3	56%[15.4 µM]	/	5%	3%
